# Screens from PubChem.
# Ecoli rRNA inh – inhibits bacterial ribosomal RNA function over humanized ribosomes; E. coli WT GFP vs humanized-ribosome RFP mutants, fluorescence, 24 h; hits give low values; DMSO median 0, no signal -100; GFP signal change (wild-type ribosome), % (concentration not given with the values); 350,000 tested, 1.6% active; AID 720706;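 active = significant combined selectivity score with lowered wild-type GFP, culture density cut under 30%, mutant RFP and density less affected; inactive = any of these conditions unmet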; note: one replicate is shown; some compounds called inactive have numbers as strong as hits
# HNF4A DNA FP – change in binding of human HNF4 alpha to DNA; P41235; HNF4a-FITC DNA binding, fluorescence polarization, 1 h; activity change, % at 10 µM; 360,000 tested, 0.3% active; AID 1224865; in the data active = activity change above about 30%, passing the limit was not always enough;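 note: controls were the assay level and a saturating level of protein; the project sought stronger binding though the title names inhibitors; some compounds called inactive have numbers as strong as hits; positive values seem to mean higher polarization but the record does not say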
# Vif TR-FRET – HIV-1 Vif–A3G interaction blockers – biochemical, TR-FRET, GST-Vif 1-94, biotin-A3G peptide, dose response retest, primary screen (AID 1117319); TR-FRET GST-Vif / biotin-A3G peptide binding; higher % means a stronger effect; test concentration not given here; strong numbers were not always called active; one-dose inhibition, %; IC50 in µM for titrated hits; 260,000 tested, 0.57% active;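 active = above the screen mean plus three standard deviations and confirmed in dose response; inconclusive = results disagree or hit not tested in dose response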;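 note: Vif residues 1-94 fused to GST binding biotinylated APOBEC3G peptide 110-148; 0% = full assay without inhibitor and 100% = GST in place of GST-Vif; retest series ran down from 100 µM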
# FGF22 binding – binders of recombinant human FGF22 by thermal shift | SYPRO orange fluorescence; percent of sucrose octasulfate shift, DMSO zero | Q9HCT0 | calls only at 9.99 µM | AID 651658 | 340,000 tested, 1.5% active;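 active = melting point raised past a set limit in the mean and every replicate; inconclusive = no clear call; three in four hits are not shown here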
# E coli growth – inhibitors of Escherichia coli growth; OD600, 23 h; hits give low values; OD600 absorbance (test concentration not listed); 330,000 tested, 0.21% active;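 active = OD600 absorbance below the run mean of sample wells minus 3.6 SD, in any replicate, cut at about 0.56 in these data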;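 note: stock transfer was 300 nL into about 60 µL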
# MLL AF4-AF9 inh – MLL-AF4/AF9 protein interaction inhibition; 350,000 tested, 0.47% active; inhibition, % at 10 µM; AID 651704; AlphaScreen, biotin-AF4 peptide binding to FLAG-AF9; P42568;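 active = every replicate reaching a set inhibition limit, whatever the replicate mean, cut at about 25% in these data; inconclusive = mean inhibition reaches that limit but some replicates miss it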;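 note: 0% = plate neutral control median and 100% = total signal loss; the record names both 10 and 1 µM as test concentration; the first replicate is given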
# Target sequence (P42568 whole entry, looked up): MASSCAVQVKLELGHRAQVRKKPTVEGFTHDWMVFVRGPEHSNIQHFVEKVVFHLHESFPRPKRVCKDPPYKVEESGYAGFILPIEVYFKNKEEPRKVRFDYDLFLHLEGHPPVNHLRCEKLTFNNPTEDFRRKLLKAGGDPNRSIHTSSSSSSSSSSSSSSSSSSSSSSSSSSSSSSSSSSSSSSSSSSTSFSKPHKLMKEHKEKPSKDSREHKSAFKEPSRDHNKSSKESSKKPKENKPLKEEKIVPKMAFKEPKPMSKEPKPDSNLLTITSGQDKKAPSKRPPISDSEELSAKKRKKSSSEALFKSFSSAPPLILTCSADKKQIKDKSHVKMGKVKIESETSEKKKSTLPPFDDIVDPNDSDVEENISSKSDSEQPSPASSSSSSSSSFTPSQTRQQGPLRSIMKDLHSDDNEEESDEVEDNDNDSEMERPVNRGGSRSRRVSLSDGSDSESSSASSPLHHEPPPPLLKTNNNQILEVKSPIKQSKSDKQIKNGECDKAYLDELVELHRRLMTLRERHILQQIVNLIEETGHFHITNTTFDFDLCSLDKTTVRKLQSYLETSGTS
# ALR H2O2 inh – inhibitors of human sulfhydryl oxidase ALR. P55789. purified ALR, DTT oxidation, H2O2 HRP-luminol luminescence. inhibition, % (test concentration not listed). 290,000 tested, 3.8% active. AID 485317;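 active = mean and each replicate at 75% or more; inconclusive = only one of the two met; inactive = neither met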;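 note: stock transfer was 7.5 nL into about 7.5 µL; 0% = neutral wells and 100% = wells with inactivated enzyme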
# Target sequence (P55789 whole entry, looked up): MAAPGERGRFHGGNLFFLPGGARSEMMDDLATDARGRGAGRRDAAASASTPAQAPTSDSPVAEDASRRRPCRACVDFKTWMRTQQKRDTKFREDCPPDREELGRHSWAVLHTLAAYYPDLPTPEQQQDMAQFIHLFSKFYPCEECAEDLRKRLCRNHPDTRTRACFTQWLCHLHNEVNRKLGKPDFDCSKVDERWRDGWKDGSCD
# Ecoli rRNA inh OD600 – second read-out of Ecoli rRNA inh, no call of its own (marks repeat the call); OD600 change, %; measured here: OD600 growth;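 optical density of the mix in the first replicate; 0 = DMSO median and -100 = no signal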
# Ecoli rRNA inh RFP – further read-out of Ecoli rRNA inh, marked with its call; RFP signal change, %; measured here: RFP humanized mutant strains;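 first replicate; 0 = DMSO median and -100 = no signal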
# Active calls of the source: *; i = inactive; ? = inconclusive; . = not tested or not shown. The list is partial; the hit share may differ from the screen's.
Ecoli rRNA inh	Ecoli rRNA inh OD600	Ecoli rRNA inh RFP	HNF4A DNA FP	Vif TR-FRET	FGF22 binding	E coli growth	MLL AF4-AF9 inh	ALR H2O2 inh	SMILES
-29*	-17*	4.5*	1.2	.	i	.	-0.7	.	O=C(/C=C/[C@H]1O[C@@H](n2cnc3c(NC(=O)c4ccccc4)ncnc32)[C@H](O)[C@@H]1O)NCc1cccc2ccccc12
.	.	.	7.6	13%	.	.	.	7	Cc1nn(-c2ccccc2)c(C)c1/C=N\N1CCN(c2ccc(Cl)cc2)CC1
8	2	-3.2	-0.1	.	i	.	-9.0	-4	Cc1cc(CNC(=O)C2(C(F)(F)F)C/C(=C\CCO)CCCO2)nn1C (centres undefined)
-1	9	-2.0	3.6	.	i	0.7	0.8	-1	O=C(c1ccoc1)N1CCC(CO)(CCc2ccccc2)CC1
-7	-5	1.5	-2.2	-2%	.	0.64	.	-4	COc1ccc(S(=O)(=O)N2CCOCC2)c(Cl)c1Cl
12	19	1.0	-1.3	.	i	.	-1.7	.	CNc1ncnc2c1ncn2[C@H]1CN(Cc2cccnc2)C[C@@H](CO)O1
-6	-46	-2.2	2.2	.	i	0.69	3.0	3	COc1cccc(N2CCN(C(=O)c3cc4c(s3)CCCCC4)CC2)c1
2	10	-2.9	.	.	i	.	1.2	.	CCC(=O)N1CC2(C1)CN(C(=O)CN1CCOCC1)[C@H](CO)c1c2c2ccc(OC)cc2n1C
.	.	.	-2.2	8%	.	0.76	.	-6	c1ccc(CCn2nnnc2C(c2cccs2)N2CCN(Cc3ccc4c(c3)OCO4)CC2)cc1 (centres undefined)
0	5	-4.3	2.8	.	i	0.67	4.5	5	C=CCc1cc(C)ccc1OCCOCCN1CCN(C)CC1
4	7	-1.6	.	.	i	.	0.2	.	C[C@H](CO)N1C[C@H](C)[C@@H](CN(C)C(=O)Nc2ccc(F)cc2)Oc2ccc(NC(=O)Cc3ccccc3)cc2CC1=O
12	9	2.4	-1.8	2%	i	0.68	-6.0	9	O=C(c1ccc2nc(N3CCOCC3)sc2c1)N1CCN(c2ccc(Cl)cc2)CC1
.	.	.	-2.1	5%	.	0.66	.	0	Cc1cc(C)c2[nH]c(=O)c(CN(Cc3ccco3)C(=S)NCC3CCCO3)cc2c1 (centres undefined)
6	9	-0.5	2.9	1%	.	0.62	-1.9	-6	COc1ccc(C(=O)NC2CCN(CC(=O)NCc3cccc(OC)c3)CC2)cc1
9	3	0.7	0.8	7%	i	0.64	3.4	.	CC(C)NC(=S)N(CCc1ccncc1)C(C)C
-13	-19	3.5	-1.1	-6%	i	0.79	-3.0	-8	CCc1ccc(N(CC)C(=O)c2ccc3c(Cl)c4c(nc3c2)CCC4)cc1
1	1	-7.0	1.1	3%	i	0.66	-25	-2	CCOC(=O)CNC(=O)CSc1nnc(-c2c[nH]c3ccccc23)n1CC
9	13	-2.0	3.8	.	i	.	-2.2	.	CCOC(=O)C1=CN2CCC[C@H]2CC1=O
3	10	-5.9	-0.4	.	i	.	7.0	2	COC(=O)C1=C(C(=O)OC)[C@@H]2N(Cc3ccccc3)c3ccccc3[C@@]23C[C@@H](C(=O)OC)N(C(=O)c2cc(C)oc2C)C3=N1
1	4	-2.6	.	.	i	.	1.6	.	COc1ccc(NC(=O)N(C)C[C@@H]2Oc3ccc(NS(=O)(=O)c4ccc(OC)cc4)cc3C(=O)N([C@@H](C)CO)C[C@@H]2C)cc1
.	.	.	0.0	0%	.	0.67	.	.	O=C(Nc1ccc2nc(-c3ccccn3)[nH]c2c1)C1CCCCC1
8	22	1.3	-12	.	i	0.69	4.0	0	CCCn1c(=O)c2sccc2n2c(CCCC(=O)NCc3ccco3)nnc12
3	8	-0.5	-2.9	.	i	0.7	-0.6	-15	COc1ccc(CCNC(=O)C2CCCN2C(=O)Nc2cccc(OC)c2)cc1 (centres undefined)
-4	9	3.8	2.1	.	i	0.68	1.7	-11	CCOc1ccc2c(c1)OC1(CCC(C)C1)CC2=O (centres undefined)
-2	0	-1.3	4.5	-4%	i	0.68	1.7	17	CC(=O)C1=C(O)C(=O)N(Cc2ccccc2)C1c1ccc(Br)cc1 (centres undefined)
.	.	.	-1.5	0%	.	0.69	.	.	Cc1nnnn1/C(=C\c1ccccc1)C(=O)OCC(=O)NC(C)(C)C
2	3	0.1	1.8	.	i	0.73	-13	-10	Cc1ccc(CNC(=O)CCc2nnc3ccc(N4CCC5(CC4)OCCO5)nn23)cc1
.	.	.	-1.4	24%	.	0.68	.	-1	CC(C(=O)OCC(=O)Nc1ccc(S(=O)(=O)N2CCCCC2)cc1)N1C(=O)c2ccccc2C1=O (centres undefined)
4	-5	-1.5	3.4	.	i	0.66	2.5	2	CCN(CC(=O)NCCc1ccc(F)cc1)Cc1nc2ccccc2c(=O)[nH]1
-1	0	-1.8	.	.	i	.	1.1	.	Cc1noc(C)c1NC(=O)Nc1ccc2c(c1)CC(=O)N([C@@H](C)CO)C[C@@H](C)[C@H](CN(C)C(=O)NC1CCCCC1)O2

# Other entries follow:
Ecoli rRNA inh	Ecoli rRNA inh OD600	Ecoli rRNA inh RFP	HNF4A DNA FP	Vif TR-FRET	FGF22 binding	E coli growth	MLL AF4-AF9 inh	ALR H2O2 inh	SMILES
1	6	-2.0	.	.	i	.	-5.7	.	C[C@H](CO)N1C[C@H](C)[C@H](CN(C)C(=O)Cc2ccccc2)OCCCC[C@H](C)Oc2ccc(NC(=O)Nc3ccc(C(F)(F)F)cc3)cc2C1=O
4	-3	2.9	-1.8	31%	i	0.64	-0.4	99*	COc1ccc(-c2nc(CCl)cs2)cc1OC
3	6	0.2	5.6	.	i	0.67	1.3	-2	Cc1cc(C)n(CC(=O)NC2CCCc3c2cnn3-c2ccccc2F)n1 (centres undefined)
-3	-7	0.4	.	.	i	.	4.0	.	C[C@@H]1CN([C@@H](C)CO)C(=O)c2cc(NC(=O)Nc3ccc4c(c3)OCO4)ccc2O[C@@H](C)CCCCO[C@@H]1CN(C)S(=O)(=O)c1cn(C)cn1
4	-1	2.0	-1.2	2%	i	0.6	3.0	5	O=C(c1ccncc1)N1CCN(C2CCC(c3ccccc3)CC2)CC1 (centres undefined)
-11	-3	0.4	-2.7	.	i	0.74	-2.7	-11	N#Cc1nc(-c2ccccc2)oc1N1CCN(C(=O)c2ccco2)CC1
1	-4	0.5	.	.	i	.	-2.0	.	COCC(=O)NC[C@@H]1[C@@H](c2ccc(C3=CCCC3)cc2)[C@@H](CO)N1C(C)=O
-17	-38	25	.	.	i	.	-2.5	.	O=S(=O)(c1ccccc1F)N1CC[C@@H]2[C@H](CO)Nc3ccc(-c4ccccc4F)cc3[C@@H]21
-18*	-13*	7.2*	2.3	.	i	0.66	-0.8	-30	CC(C)(C)OC(=O)NOCC(=O)N(Cc1ccccc1)CC(O)COc1ccccc1 (centres undefined)
5	1	-0.6	.	.	i	.	0.4	.	C[C@@H]1CCCCO[C@@H](CN(C)C(=O)Nc2ccc3c(c2)OCO3)[C@@H](C)CN([C@@H](C)CO)C(=O)c2cc(NC(=O)Nc3ccccc3)ccc2O1
7	8	2.5	2.7	-12%	i	0.65	0.6	-78	CCCCn1c(N)c(N(CCC(C)C)C(=O)COC(=O)c2ccc([N+](=O)[O-])s2)c(=O)[nH]c1=O
-28	-28	-6.1	-1.4	1%	i	0.69	0.3	.	O=S(=O)(c1ccccc1)c1ncc(C(F)(F)F)cc1Cl
1	0	0.7	3.0	.	i	0.69	-2.6	15	COC(=O)c1ccccc1S(=O)(=O)Oc1ccc(-c2ccc(C(=O)O)cc2)cc1
.	.	.	1.0	-9%	.	0.65	.	-17	CCN(CC)S(=O)(=O)c1ccc(-c2nnc(SCC(=O)Nc3ccc(OC)cc3)o2)cc1
7	4	1.6	.	.	i	.	-0.9	.	C[C@H]1CN([C@@H](C)CO)C(=O)Cc2cc(NC(=O)Nc3ccccc3)ccc2O[C@H]1CN(C)Cc1ccc(Cl)c(Cl)c1
11	7	-1.2	-1.9	.	i	0.73	0.1	-4	Cc1c(Cl)c(C(=O)N2CCCCCC2)nn1C
15	15	2.9	-0.4	.	i	0.68	-1.5	-41	CC(=O)c1c(C(C)=O)c(C)n(-c2cccc3cccnc23)c1C
-11	-8	-2.3	0.9	.	i	0.72	?	-1	COC(=O)C1=C(C)N(Cc2cccnc2)C(=O)/C1=C\c1sccc1C
-16	-45	24	9.5	-3%	i	0.67	6.0	-103	CC(C)CN(C)Cc1c(C(=O)N2CCc3ccccc3C2)nc2ccc(Cl)cn12
-4	0	-0.8	-1.9	?	i	0.72	-1.4	-1	C=CCn1c(COc2ccc(Cl)cc2)nnc1SCC(=O)c1c(N)n(C)c(=O)n(C)c1=O
-3	3	-3.0	.	.	i	.	2.6	.	C[C@H]1CN([C@@H](C)CO)C(=O)Cc2cc(N(C)C)ccc2O[C@H]1CN(C)S(=O)(=O)c1ccc(F)cc1
-1	7	-0.2	.	.	i	.	-0.3	.	CC(C)NC(=O)N[C@H]1C=C[C@H](CC(=O)N2CCCCC2)O[C@H]1CO
